Source: PubChem BioAssay (National Center for Advancing Translational Sciences (NCATS))
Six1-Eya2 inh: qHTS Assay for Inhibitors of the Six1/Eya2 Interaction; Homeobox protein SIX1 (Homo sapiens) + Protein phosphatase EYA2 (Homo sapiens), …; AlphaScreen GST-Six1/His-Eya2 binding, biochemical; stronger effect = lower value; control for the full effect not named in the record; activity change, % (test concentration not listed); 360,000 tested, 0.56% active; AID 651725, 2012; in the data active = activity change below about -65%; inconclusive = about -30% to -65%; inactive = above about -30%; note: % is set by controls: 0 for no effect and ±100 for the full control effect; compound concentration not given in the record
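AlphaScreen luminescence read after one hour at 37 °C in darkness. Pin-transferred compounds met GST-Six1 and His-Eya2 protein (5X stock 250 nM/500 nM) plus glutathione donor and Ni-chelate acceptor beads (5X, 50 ug/mL).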
D2 ag: Beta-Arrestin HTS for Positive Allosteric Modulators of the Human D2 Dopamine Receptor: Agonists. 360,000 tested, 0.084% active. AID 624465, 2012. DiscoveRx PathHunter D2 beta-arrestin, luminescence, 90 min; 100% = 57 uM dopamine signal. D(2) dopamine receptor (Homo sapiens), P14416. activation, % (no concentration beside the values); in the data active = activation above about 40%; inconclusive = about 15% to 40%; inactive = below about 15%; note: compound concentration not given in the record; the text of the record calls up to 30% inactive
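DiscoveRx PathHunter D2 beta-arrestin cells (2,100/well) attached overnight, then compound-stimulated 90 min at 37 C in HBSS/10 mM HEPES/0.1% Tween-20 buffer; beta-galactosidase complementation read by luminescence after 1 h at ambient temperature. Dopamine 57 uM final (EC100) as control.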
CtBP-E1A blk: qHTS Assay for Inhibitors of the CtBP/E1A Interaction. AlphaScreen GST-E1A/His-CtBP binding, 1536-well; stronger effect = lower value; control for the full effect not named in the record. activity change, % (test concentration not listed). 340,000 tested, 0.49% active. AID 651724, 2012; in the data active means activity change below about -65%; inconclusive means about -30% to -65%; inactive means above about -30%; note: % is set by controls: 0 for no effect and ±100 for the full control effect; compound concentration not given in the record
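AlphaScreen with 125 nM GST-E1A and 125 nM His-CtBP (5X stocks) in Tris pH 8.0, 300 mM NaCl, BSA, Tween 20, TCEP. Compounds preincubated 2 h at 37 deg C, then glutathione donor/nickel acceptor beads added for 1 h at 37 deg C in dark.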
TRPV1 potentiator: HTS Assay for Compounds that Act as Potentiators of the Vanilloid Receptor 1; AID 540277, 2011; 320,000 tested, 0.02% active; Transient receptor potential cation channel subfamily V member 1 (Homo sapiens), Q8NER1; TRPV1-expressing cells, Fluo-8 calcium influx, capsaicin EC20 potentiation; host cell line not named in the record; control for the full effect not named in the record; potentiation, % at 8.33 µM; active means potentiation above 80%; inconclusive means 30% to 80%; inactive means below 30%; note: 0% is about no effect
Target sequence (Q8NER1 whole entry, looked up): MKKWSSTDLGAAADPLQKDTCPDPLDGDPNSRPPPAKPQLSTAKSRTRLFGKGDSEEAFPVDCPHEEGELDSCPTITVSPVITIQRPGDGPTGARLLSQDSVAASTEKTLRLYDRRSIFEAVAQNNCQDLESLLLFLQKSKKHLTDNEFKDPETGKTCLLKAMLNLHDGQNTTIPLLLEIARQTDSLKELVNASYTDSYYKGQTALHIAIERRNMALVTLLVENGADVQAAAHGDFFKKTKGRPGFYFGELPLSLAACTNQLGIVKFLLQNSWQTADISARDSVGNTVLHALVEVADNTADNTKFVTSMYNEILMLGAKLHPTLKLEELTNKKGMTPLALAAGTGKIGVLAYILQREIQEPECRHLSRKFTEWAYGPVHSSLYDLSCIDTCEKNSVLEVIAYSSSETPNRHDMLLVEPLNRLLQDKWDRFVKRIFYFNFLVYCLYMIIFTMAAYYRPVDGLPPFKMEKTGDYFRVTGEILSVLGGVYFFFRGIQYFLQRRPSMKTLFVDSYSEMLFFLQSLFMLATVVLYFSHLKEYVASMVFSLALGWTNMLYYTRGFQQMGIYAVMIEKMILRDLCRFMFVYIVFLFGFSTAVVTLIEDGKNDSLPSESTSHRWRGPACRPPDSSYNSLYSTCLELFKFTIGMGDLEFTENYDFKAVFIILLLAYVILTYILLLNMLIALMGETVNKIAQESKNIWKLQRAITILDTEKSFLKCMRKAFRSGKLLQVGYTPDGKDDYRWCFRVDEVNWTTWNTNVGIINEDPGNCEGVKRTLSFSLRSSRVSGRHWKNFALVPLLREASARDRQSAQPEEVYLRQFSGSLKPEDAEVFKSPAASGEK
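Cells expressing TRPV1 were dye-loaded with Fluo-8 and read kinetically: 10 s baseline, 3 min after compound (agonist portion), then 2 min after EC20 capsaicin (allosteric enhancer portion). Calcium-bound dye fluorescence at 480/520 nm.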
PINK1 modulator: A Quantitative High throughput Screen to Identify Chemical Modulators of PINK1 Expression; PINK1 immunofluorescence, high-content cytometry, 24 h; AID 624263, 2012; 410,000 tested, 0.2% active; Potency, µM (doses to about 76.6 µM), for the others: at the highest dose activation (PINK1 increase), usual class: activators; active = well fitted activation curve with a large enough effect; inconclusive = small, poorly fitted or top-dose-only effect; inactive = flat fitted curve, though single readings scatter; cell line not stated here;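 note: potency is the fitted concentration of half-maximal effect; % of control where 0% means no effect; nearly all actives have a fitted effect of over 65% in size; a mitochondrial uncoupler was the plate control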
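Measures PINK1 amount and localization on or inside mitochondria by immunofluorescence. Stable cells get compounds at 5 concentrations for 24 hours before fixation and staining; CCCP controls included.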
Sfp PPTase inh: qHTS Assay for Inhibitors of Bacillus subtilis Sfp phosphopantetheinyl transferase (PPTase); 4'-phosphopantetheinyl transferase ffp (Bacillus subtilis), Q9F4F7; Biochemical Sfp PPTase activity, qHTS; Potency, µM, inactives show max response, negative = inhibition, usual class: inhibitors; 310,000 tested, 3.5% active; active = well fitted inhibition curve with a large enough effect; inconclusive = small, poorly fitted or top-dose-only effect, or another doubt; inactive = no such curve, though single readings can be large or run the other way;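 note: the enzyme is Sfp with the accession as filed and its product quenches rhodamine fluorescence; potency is the fitted concentration of half-maximal effect; 0% = enzyme reaction without inhibitor and -100% = no enzyme wells; top concentration of the series not given in the record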
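Buffer: 50 mM Hepes-Na pH 7.6, 10 mM MgCl2, 0.01% Nonidet P-40, 0.01% BSA. Enzyme 15 nM, pre-exposed to compound 15 min; substrates then added and fluorescence change tracked over 30 min.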
D2 potentiator: Beta-Arrestin HTS for Positive Allosteric Modulators of the Human D2 Dopamine Receptor: Potentiators. D(2) dopamine receptor (Homo sapiens), P14416. DiscoveRx D2 beta-arrestin cells, luminescence, 90 min; 100% = 57 uM dopamine signal. potentiation, % (concentration not given with the values). 360,000 tested, 0.23% active. AID 624464, 2012; active = potentiation of 50% or more; inconclusive = 30% to 50%; inactive = 30% or less;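 note: compound concentration not given in the record; tested on top of an EC20 dose of dopamine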
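PathHunter D2 cells, attached overnight at 37 deg C, received compound in DMSO plus dopamine at EC20 (50 nM final) for 90 min at 37 deg C. Beta-arrestin recruitment was read as luminescence after 1 h with detection reagent at ambient temperature.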
An asterisk follows results filed as active; ? = inconclusive; · = not tested or not shown; & = joins results of further samples; [ ] = another dose, or the depositor's remark.

Molecule	Six1-Eya2 inh	D2 ag	Sfp PPTase inh	D2 potentiator	PINK1 modulator	CtBP-E1A blk	TRPV1 potentiator
CCc1cc(=O)oc2c3c(cc(OCC(=O)NCc4ccco4)c12)OC(C)(C)CC3	-11	3.9	0%	18	0.9%	-14	-4
O=S(=O)(N1CCOCC1)n1cnc2ccccc21	1	-2.7	12%	-4	9.0%[38.3 µM]	0	-22
O=C(NCCN1C(=O)S/C(=C\c2ccc(F)cc2)C1=O)C1CCN(S(=O)(=O)c2cccs2)CC1	8	-6.6	-5%	-7	5.3%	-6	-5
CC(C)(CNC(=O)C1CCCN1C(=O)c1cccs1)N1CCOCC1 (stereo not given)	0	-4.9	23%	-10	0.5%	19	4
O=C(OCC(=O)c1ccc(Br)s1)c1ccc(O)cc1	0	7.7	·	1	1.3%	·	·
O=C(NCc1ccccc1)C1CCCN(C(=O)c2ccc(F)cc2)C1 (stereo not given)	0	0.3	·	-14	0.4%	-3	0
CCC(=O)Nc1ccc(C(=O)N/N=C/c2ccc([N+](=O)[O-])cc2)cc1	-4	7.3	9%	26	-1.9%	5	-8
Cc1cccc(N2CCN(CCCNC(=O)C3CCCN(c4ncnc5c4nc4n5CCCCC4)C3)CC2C)c1 (stereo not given)	-11	-1.1	14%	-13	0.9%	?	4
CC(=O)c1cccc(NC(=O)Nc2ccc3c(c2)OCO3)c1	-4	-4.4	5%	-11	2.7%	-6	-5
COc1ccc(N2CCN(C(c3cccs3)C(C)NC(=O)C(=O)N3CCCC3)CC2)cc1 (stereo not given)	-13	-1.4	-9%	-9	-0.3%	-13	-8
CN(C)C(=O)COc1ccc2ccc(=O)oc2c1	2	0.7	8%	-13	-3.5%	-6	-9
CN(Cc1ccon1)C(=O)C1CCC(=O)N(CCc2ccc(Cl)cc2)C1 (stereo not given)	-2	1.8	10%	2	0.8%	11	-6
Cc1ccc(S(=O)(=O)c2nc(S(=O)(=O)c3ccccc3)sc2N2CCN(C)CC2)cc1	-1	-1.8	-1%	-32	-2.1%	2	-8
CCOC(=O)CC(NC(=O)c1cc2cc(Cl)cc(Cl)c2oc1=O)c1cccc([N+](=O)[O-])c1 (stereo not given)	1	4.2	3%	10	4.3%	13	1
Nc1nc(=S)c2ncn(C3CCCCC3)c2[nH]1	?	-1.3	·	-12	-0.3%	-19	·
C=CCN=C1NN=C(c2cc(C)n(CC=C)c2C)CS1	-10	-11	-41%	-12	-0.5%	-7	3
CC(=O)Nc1ccccc1OCC(O)CS(=O)(=O)c1ccc(C(F)(F)F)cn1 (stereo not given)	7	6.6	15%	-3	0.4%	·	-33
Cc1cccc(CC(Cc2nc3ccccc3[nH]2)c2nc3ccccc3[nH]2)c1 (stereo not given)	-3	-2.5	40µM*	-22	?	-13	-29
Cc1ccccc1-n1nc2c(c1NC(=O)c1cc3ccccc3o1)CS(=O)(=O)C2	-5	-1.3	·	-18	-0.1%	0	7
O=C(CCC(=O)Nc1ccccc1)NNC(=O)COc1ccccc1	5	1.7	-1%	2	0.5%	4	3
CCCc1[nH][nH]c(=O)c1C(c1ccc(Br)cc1)C(C#N)C#N (stereo not given)	-2	-2.0	?	-11	-2.5%[38.3 µM]	18	-4
CCC(=O)N1CCN(C(=O)c2ccccc2)CC1	6	1.4	·	3	2.0%	0	-5
CCOC(=O)CN1C(=O)C(C)(C)Oc2ccc(C(=O)Nc3ccccc3OC)cc21	-4	-5.2	-6%	-10	2.4%	2	-5
Cn1c(=O)c2ncn(CC(=O)Nc3cc(C(F)(F)F)ccc3N3CCOCC3)c2n(C)c1=O	0	1.3	9%	-15	8.3%[38.3 µM]	-1	-1
COc1cccc(C2=CC(c3ccc(N(C)C)cc3)n3nnnc3N2)c1 (stereo not given)	-12	-1.1	-16%	-8	7.8%	-2	6
COc1ccc(-n2c(=O)c3c4c(sc3n3c(=S)[nH]nc23)CCC4)cc1	4	-1.6	?	-14	-0.7%	7	·
COc1ccc(C(=O)OCC2CC(c3ccccc3)N(C)O2)cc1 (stereo not given)	4	-3.0	5%	1	-8.8%[38.3 µM]	11	-2
COc1ccccc1Nc1nn2c(=O)c3ccc(C(=O)N4CCCCC4)cc3nc2s1	-8	-1.5	13%	7	3.9%&-2.9%	-1	-6
CC(=O)c1ccccc1NC(=O)COC(=O)/C(=C/c1ccccc1)n1nnnc1C	3	-5.1	2%	-2	6.7%	-1	9
Cc1cc2ncn(N)c2cc1C	2	6.3	11%	4	-3.0%[38.3 µM]	1	6
Cc1occc1C(=O)Nc1cccc2ccccc12	-4	-3.6	-9%	-10	0.5%	-1	-6
CCN1C(=O)[C@H]2[C@H]3CN=C(SCc4ccc(Cl)cc4)N3[C@@](Cc3ccccc3)(C(=O)OC)[C@H]2C1=O	20	-0.7	·	-7	4.4%	0	·
COc1ccc(CCCNC(=O)C2Cc3c(-c4ccccc4)ccnc3O2)cc1 (stereo not given)	-6	9.5	·	6	2.8%	-2	·
COc1ccc(C(C)=O)cc1CSc1nnc(-c2ccncc2)n1C	0	-1.4	23%	-24	0.1%	-12	2
CCOC(=O)CSc1nc2ccc(NC(C)=O)cc2s1	16	-0.7	8%	2	4.8%	50	-7
CS(=O)(=O)N1CCN(c2nc(-c3ccccc3)cs2)CC1	-13	-1.2	-3%	21	-0.8%	-4	-19
O=C(CSC(=S)N1CCCCC1)Nc1ncc2c(n1)CCCC2=O	-5	-3.7	0%	-5	-1.6%	2	-5
CCC(=O)N1N=C(c2ccc(Cl)cc2)CC1c1ccco1 (stereo not given)	3	-0.7	-13%	-7	-2.2%	2	·
CS(=O)(=O)N(CC(=O)N1CCC(C(N)=O)CC1)C1CCCCC1	2	-0.7	18%	1	-1.4%	-3	-2
CC(C)(C)S(=O)(=O)c1ccccc1-c1noc(-c2ccccc2)c1C(N)=O	12	1.5	·	-5	1.5%	4	·
O=C(/C=C/c1ccccc1[N+](=O)[O-])OCC(=O)c1ccccc1	-17	2.8	-13%	-3	-1.3%	-22	-32
CC(C)Sc1sc(C(=O)O)c(-c2ccc(Cl)cc2)c1C#N	0	-2.6	12%	-3	-2.8%	4	-3
Cc1cc(C)n2nc(SCC(=O)Nc3ccc(O)cc3)nc2n1	-8	-2.5	22%	-8	-0.7%&-0.5%	1	-2
CC(C)(C)c1ccc(C(=O)Cn2cnnc2C#N)cc1	-2	5.5	6%	-1	3.3%	9	-4
Cc1ccccc1Cn1ccc(NC(=O)c2onc(C)c2Cl)n1	-1	-1.7	7%	-5	2.4%	6	-2
O=C(Oc1cncc(Cl)c1)c1ccco1	-17	-1.9	10%	2	1.3%	1	-1
COc1cccc(NC(=O)CN(C)C(=O)c2ccc3ccccc3c2)c1	-2	-2.4	17%	-7	-1.5%[38.3 µM]	-6	?
CCC(C)Sc1nnc(Cc2cc(=O)[nH]c(=O)[nH]2)n1-c1ccc(OC)cc1 (stereo not given)	-3	-5.1	17%	-4	-0.5%	1	·
O=S(=O)(Nc1ccc(N2CCOCC2)cc1)c1ccc(F)cc1	-11	1.3	6%	6	3.2%	-4	-2
O=C(COC(=O)CCc1nc2ccccc2s1)NC(=O)NCc1ccco1	-8	-2.9	-25%	0	0.0%	-7	-1
CCc1ccc(OCC(=O)NC(NC(=S)Nc2ccc(Cl)cc2)C(Cl)(Cl)Cl)cc1 (stereo not given)	3	-0.8	23%	10	-3.8%	-9	-18
COC(=O)c1c(NC(=O)c2ccc(C)cc2)csc1C	11	-7.0	-20%	-12	5.9%	18	-8
CCOc1ccc(C(c2c(C)n(C)n(-c3ccccc3)c2=O)c2c(C)n(C)n(-c3ccccc3)c2=O)c(O)c1	-1	3.8	·	-11	-0.5%	-8	·
O=C(O)c1ccc(CNCc2cccc(OCc3ccc(F)cc3)c2)cc1	-1	1.5	3%	-11	0.0%	-12	1
Cc1ccc(/C=N/NC(=O)Cn2cnc3ccccc32)o1	-2	-4.5	-65%	-9	-2.8%	-11	2
COC(=O)c1scc(C)c1NC(=O)c1cccc(C#N)c1	2	-7.6	19%	4	-0.3%	2	7
Cc1ccc(C(=O)N2CCc3ccccc32)cc1NC(=O)c1ccco1	-15	-8.3	-2%	-37	0.3%	7	3
COc1ccc(C(=O)N(Cc2ccco2)Cc2cc3cc(C)ccc3[nH]c2=O)cc1OC	5	-1.8	·	-10	2.3%	-5	·
CCn1cc(C(=O)N2CCN(c3ccccn3)CC2)c2cc(OC)c(OC)cc2c1=O	-2	-4.0	25%	-11	-0.1%	-8	-9
O=C(O)CS(=O)(=O)CC(=O)O	0	-5.0	16%	2	-1.1%	7	0

(further entries)
Molecule	Six1-Eya2 inh	D2 ag	Sfp PPTase inh	D2 potentiator	PINK1 modulator	CtBP-E1A blk	TRPV1 potentiator
CC/C(CC(C)(C)c1ccccc1)=N\O	4	-2.1	18%	-16	1.4%	7	0
CCN(C(=O)COc1ccc(F)cc1Br)c1c(N)n(Cc2ccccc2)c(=O)[nH]c1=O	5	11	·	-2	-0.3%	-1	0
CCOc1ccc(N(CC)C(=O)Cc2c(C(=O)O)n(C)c3ccccc23)cc1	-3	-3.1	2%	-5	-2.2%	5	15
CCOc1ccc(N(CC(=O)N2CCN(Cc3ccccc3)CC2)S(C)(=O)=O)cc1	0	-3.0	2%	-1	0.8%	1	-5
Cc1cc2c3ccccc3ncn2n1	-3	-1.6	8%	-12	0.2%	·	3
O=C(CNC(=O)c1nc[nH]c1C(=O)NCC(=O)OCc1ccccc1)OCc1ccccc1	7	7.7	17%	28	2.9%	2	?
